CSC inhib: cancer stem cell viability inhibitors, primary screen, luminescence; cancer stem cell-like cells viability; inhibition, % at 7.5 µM; 300,000 compounds, 1.1% hits;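 active = mean at 75% or more and at least half the replicates too; tested in HMLE shEcad cells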;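 note: 0% = median of negative and 100% = median of positive control wells; the first replicate is given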
MT1-MMP act inh: blockers of MT1-MMP proenzyme processing, primary screen, HT1080 RFP-PRO-GFP cells, GFP/RFP fluorescence | 360,000 compounds, 0.061% hits | GFP/RFP ratio fluorescence, overnight; percent of plate control window, DMSO zero | GFP/RFP ratio change, % at 20 µM | AID 651647, 2012;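 active = GFP/RFP ratio change of at least 30% with cell ATP level not reduced by more than half and red fluorescence within 50% of control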; note: strong numbers were not always called active
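Read-out: GFP/RFP fluorescence ratio; Test system: RFP-PRO-GFP reporter HT1080 cells; Compound dosing: single-point 20 µM compound, 1% DMSO; Times: overnight compound exposure at 37 °C.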
UUG fidelity: modulators of yeast start codon fidelity, primary screen, whole organism, S. cerevisiae, single point, plate reader; S. cerevisiae UUG-firefly luciferase reporter, luminescence/redox ratio; activity score, % at 18.7 µM; 350,000 compounds, 0.13% hits;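 active = replicate mean at a twofold rise or more, about +100% in these data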;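 note: firefly luciferase made from a UUG start codon reports start codon fidelity; reporter light over untreated wells divided by growth signal over untreated wells; some hits fall short of that in this replicate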
PABP polyA inh: PABP poly(A) RNA binding inhibitors, primary screen, biochemical, fluorescence polarization, uHTS | Polyadenylate-binding protein 1 (Homo sapiens), P11940 | inhibition, % at 35 µM | 290,000 compounds, 1% hits | AID 2014, 2009;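 active = 50% or more with normal probe brightness, or confirmed in later tests; about a fifth of its hits are not listed in these tables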;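 note: calls also rest on retests at 20 µM and on dose response follow-up; controls were probe without protein and protein plus probe with vehicle; some compounds called inactive have numbers as strong as hits; many hits fall short of the cut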
Rce1 inh: yeast Rce1p protease inhibitors, primary screen, biochemical, fluorescence, cell-free homogeneous; CAAX prenyl protease 2 (Saccharomyces cerevisiae (strain ATCC 204508 / S288c)), Q03530; yeast membranes, quenched prenylated peptide cleavage fluorescence; calls only; 290,000 compounds, 0.27% hits;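 active = fall in fluorescence gain of 50% or more versus controls, with final raw signal at or below 3038400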;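 note: plate controls were neutral control wells for no effect and wells lacking membranes for full effect; tested at 10 µM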
Target sequence (Q03530 whole entry, looked up): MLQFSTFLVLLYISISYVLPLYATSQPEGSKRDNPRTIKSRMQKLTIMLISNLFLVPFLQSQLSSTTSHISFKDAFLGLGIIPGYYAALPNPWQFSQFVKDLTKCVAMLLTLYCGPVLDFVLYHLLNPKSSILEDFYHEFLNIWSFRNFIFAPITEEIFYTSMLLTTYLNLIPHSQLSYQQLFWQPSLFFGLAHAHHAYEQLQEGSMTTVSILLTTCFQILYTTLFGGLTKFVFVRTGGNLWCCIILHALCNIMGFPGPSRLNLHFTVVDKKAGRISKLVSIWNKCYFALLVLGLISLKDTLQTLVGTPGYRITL
HIV Env fusion: inhibitors of HIV-1 Env-driven cell-cell fusion, primary screen, HeLa-JRFL effector, CEM21 target cells, luciferase; inhibition, % at 12.3 µM; 360,000 compounds, 1.1% hits; AID 651610, 2012;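 active = mean replicate inhibition score of at least 50 and every replicate individually at or above 50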;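 note: 0% = plate neutral controls and 100% = maraviroc near 300 nM; one replicate is shown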
eIF4H inh: human eIF4H binding inhibitors, primary screen, translation initiation inhibitor project, biochemical, uHTS, fluorescence polarization. inhibition, % at 35 µM. Eukaryotic translation initiation factor 4H (Homo sapiens), Q15056. eIF4H fluorescence polarization binding assay. 290,000 compounds, 0.94% hits;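 active = 50% or more with normal probe brightness, or confirmed in later tests; about a fifth of its hits are not listed in these tables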;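 note: calls also rest on retests at 20 µM and on dose response follow-up; 0% = protein and probe with vehicle and 100% = probe without protein; strong numbers were not always called active; many hits fall short of the cut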
MT1-MMP act inh RFP: second read-out of MT1-MMP act inh, no call of its own (marks repeat the call); RFP signal change, %; measured here: RFP expression control read;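 0 = vehicle wells; hits needed this value within 50% of zero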
* = called active by the depositor; i = inactive; · = no result given; & = joins results of further samples. Only part of the results is shown, so the mix of outcomes need not match the whole.

Compound | MT1-MMP act inh RFP | eIF4H inh | MT1-MMP act inh | CSC inhib | UUG fidelity | Rce1 inh | PABP polyA inh | HIV Env fusion
CN(Cc1ccccc1)Cc1c(O)ccc2ccccc12 | 4 | 3 | 0 | -10 | -4 | i | 4 | -16
CCn1c(O)c(C=Nc2ccccc2)sc1=S | · | -1 | · | 1 | · | · | -1 | -60
CN1CCN(c2sc(S(C)(=O)=O)nc2S(=O)(=O)c2ccc(Cl)cc2)CC1 | -2 | -12 | -4 | -2 | -4 | i | -5 | 1
Nc1c(S(=O)(=O)c2ccccc2)csc1C(=O)O | 1 | -4 | 1 | 2 | · | i | -1 | 17
COc1ccc(CCN2C(=O)CSC2c2cccc([N+](=O)[O-])c2)cc1OC (stereo not given) | -6 | 6 | 1 | -7 | 5 | i | -4 | 4
CC(C)(C)n1cnc2cc(NC(=O)c3ccco3)ccc21 | -1 | 1 | -1 | 10 | -32 | i | 11 | -18
CC1(C(=O)Nc2ccccc2)Cc2ccccc2C(=O)O1 (stereo not given) | -4 | -8 | -6 | -10 | 3 | i | -4 | 15
N#Cc1ccc(-c2cccnc2)nc1SCc1ccc(Cl)cc1Cl | -7 | -14 | -5 | · | -9 | i | -4 | ·
CC(C)(C)c1ncc(S(=O)(=O)c2ccc(C(F)(F)F)cn2)c(N)n1 | -9 | -2 | -4 | -6 | · | · | -8 | -4
Cn1cccc1Cc1nnc(SCC(=O)NCc2ccc3c(c2)OCO3)n1CCc1ccccc1 | · | 7 | · | -11 | -9 | i | 12 | 27
CCN(c1ccc(NC(=O)CN2C(=O)NC3(CCOc4ccccc43)C2=O)cc1)C(C)C (stereo not given) | 7 | 8 | 5 | 2 | · | i | 4 | -46
CCOCCCn1cc(C(=O)c2cc(Br)ccc2O)cc(C#N)c1=O | 8 | 4 | -5 | -2 | · | i | -8 | 13
CCOC(=O)CCCCNCc1ccccc1 | 2 | 6 | 2 | -2 | -19 | i | -8 | ·
Clc1ccc(SCCOCCN2CCc3ccccc3C2)cc1 | 0 | -1 | -4 | 4 | · | i | 1 | 24
CCOc1cc(C)nc(N2CCCC(C(=O)NCc3ccccc3F)C2)n1 (stereo not given) | 5 | 12 | 7 | -14 | -17 | i | -6 | ·
O=c1oc2c(-c3cccc(F)c3)cc(O)cc2s1 | 0 | -8 | -7 | 23 | -24 | i | -8 | 12
CCOC(=O)C(NC(C)=O)(Nc1cccc(F)c1)C(F)(F)F (stereo not given) | 2 | -5 | 2 | 0 | -12 | i | -2 | ·
Cc1ccn2cc(-c3cc4ccccc4oc3=O)nc2c1 | 3 | 4 | 7 | · | · | · | 11 | 12
Cc1ccc(C)c(NC(=O)CC2Oc3ccccc3NC2=O)c1 (stereo not given) | -2 | -2 | -5 | -9 | -14 | i | 4 | 3
COc1ccc(C(=O)Cn2c(=N)n(C)c3ccccc32)cc1 | 0 | 4 | 0 | -6 | -8 | i | 9 | -43

Looked up by compound from the list above, 2 records:
Compound | MT1-MMP act inh RFP | eIF4H inh | MT1-MMP act inh | CSC inhib | UUG fidelity | Rce1 inh | PABP polyA inh | HIV Env fusion
COc1ccc(CCN2C(=O)CSC2c2cccc([N+](=O)[O-])c2)cc1OC (stereo not given) | -6 | 6 | 1 | -7 | 5 | i | -4 | 4
Nc1c(S(=O)(=O)c2ccccc2)csc1C(=O)O | 1 | -4 | 1 | 2 | · | i | -1 | 17

Arranged by value in HIV Env fusion (smallest number first): some entries from above
| SMILES | HIV Env fusion |
| --- | --- |
| CC(C)(C)c1ncc(S(=O)(=O)c2ccc(C(F)(F)F)cn2)c(N)n1 | -4 |
| COc1ccc(CCN2C(=O)CSC2c2cccc([N+](=O)[O-])c2)cc1OC (stereo not given) | 4 |
| Cc1ccn2cc(-c3cc4ccccc4oc3=O)nc2c1 | 12 |
| Clc1ccc(SCCOCCN2CCc3ccccc3C2)cc1 | 24 |

(cont.)
Compound | MT1-MMP act inh RFP | eIF4H inh | MT1-MMP act inh | CSC inhib | UUG fidelity | Rce1 inh | PABP polyA inh | HIV Env fusion
COC(=O)c1ccc(COc2ccccc2/C=C/C(=O)c2ccc(OCC(=O)O)cc2)cc1 | -6 | 7 | -7 | 51 | -11 | i | 21 | -12
CC(Oc1cccc(Cl)c1)C(=O)NC1CC(C)(C)NC(C)(C)C1 (stereo not given) | 2 | -10 | -2 | -7 | -22 | i | 4 | ·
CCCc1nc2ccc(NC(=O)NCCC(=O)OCC)cc2c(=O)n1Cc1ccc(Cl)cc1 | -1 | 2 | 3 | -17 | 34 | i | 2 | -18
CSc1ccc(/C=N/N2CCN(Cc3ccc(Cl)cc3)CC2)cc1 | -8 | -6 | 3 | 17 | -10 | i | -14 | 17
S=C(Nc1ccc(Cl)cc1)N1CCOCC1 | 3 | · | 1 | -11 | -24 | i | · | 4
CCOC(=O)C1CCN(c2nc3ccccc3nc2C(C#N)C(=O)OCCOC)CC1 (stereo not given) | 5 | -3 | -19 | -26 | -5 | i | -6 | ·
Cn1cc(S(=O)(=O)N2CCCC2)cc1C(=O)NCc1ccc(Cl)cc1 | 0 | 2 | 1 | -13 | -17 | i | -9 | 35
O=C(N/N=C/c1ccccn1)c1sc2ccccc2c1Cl | 1 | 15 | 6 | 6 | -52 | i | 10 | 27
COc1cccc(CNS(=O)(=O)/C=C/c2ccc(OC)c(OC)c2)c1 | -2 | 8 | 2 | 0 | -8 | · | 4 | -7
CC(=O)c1cccc(NC(=O)C2=CC(c3ccc4c(c3)OCO4)=NS(=O)(=O)N2C)c1 | 2 | · | 1 | -7 | -14 | i | · | -4
Cc1ccc(N2C(=O)c3cccc4c([N+](=O)[O-])ccc(c34)C2=O)c2cccnc12 | -1 | 8 | -147 | 64 | -18 | i | 10 | -204
COc1ccc(NC(=O)Cn2nnc(C(=O)NCc3ccco3)c2N)c(OC)c1 | 5 | -12 | 2 | 11 | · | i | -1 | 5
CC(=O)Nc1ccc(C(=O)N/N=C/c2ccccc2OCc2ccccc2)cc1 | -3 | -3 | 4 | -1 | -8 | i | 2 | 0
COCCn1c(=N)c(C(=O)NCCc2ccc(OC)cc2)cc2c(=O)n3cccc(C)c3nc21 | -7 | -11 | -3 | -1 | · | i | 3 | ·
Cn1c(NC(=O)c2ccccc2)cc(=O)n(C)c1=O | 3 | -4 | 0 | · | -15 | i | 4 | -9
CCN(CC)c1ccc(NC(=O)c2cccc(OC)c2)c(C)c1 | -9 | -7 | 5 | 26 | -6 | i | -5 | -24
CCOC(=O)C1CCCN(C(=O)c2cc(=O)c3ccccc3o2)C1 (stereo not given) | 0 | -5 | -4 | -11 | 4 | i | -6 | -43
C[C@@H]1CN([C@H](C)CO)C(=O)Cc2cc(NC(=O)Cn3cnnn3)ccc2O[C@@H]1CN(C)Cc1ccc(Cl)c(Cl)c1 | 1 | · | -3 | 10 | 1&0 | · | · | -6
CC(NC(=O)C1CCN(S(=O)(=O)c2ccc3c(c2)NC(=O)CO3)CC1)c1ccccc1 (stereo not given) | -4 | -15 | 8 | -17 | -10 | i | -5 | -8
CSc1cc(C)n(-c2ccc(Cl)cc2)c(=S)c1C(C)=O | 0 | 2 | 2 | -9 | · | i | 4 | ·

By substructure: the entries above with two or more sulfur atoms.
Compound | MT1-MMP act inh RFP | eIF4H inh | MT1-MMP act inh | CSC inhib | UUG fidelity | Rce1 inh | PABP polyA inh | HIV Env fusion
CCn1c(O)c(C=Nc2ccccc2)sc1=S | · | -1 | · | 1 | · | · | -1 | -60
CN1CCN(c2sc(S(C)(=O)=O)nc2S(=O)(=O)c2ccc(Cl)cc2)CC1 | -2 | -12 | -4 | -2 | -4 | i | -5 | 1
Nc1c(S(=O)(=O)c2ccccc2)csc1C(=O)O | 1 | -4 | 1 | 2 | · | i | -1 | 17
CSc1cc(C)n(-c2ccc(Cl)cc2)c(=S)c1C(C)=O | 0 | 2 | 2 | -9 | · | i | 4 | ·

Next section
Compound | MT1-MMP act inh RFP | eIF4H inh | MT1-MMP act inh | CSC inhib | UUG fidelity | Rce1 inh | PABP polyA inh | HIV Env fusion
Cc1cc(C)c2oc(C(=O)N(Cc3cccs3)C3CCS(=O)(=O)C3)cc(=O)c2c1 (stereo not given) | 0 | 1 | 3 | -1 | · | i | 11 | 6
COc1cccc(C(=O)NCC(=O)OCC(=O)Nc2ncc(Cl)cc2Cl)c1 | 8 | 36 | -1 | -11 | · | i | 7 | 9
Cc1cccc(OCC(=O)Nc2ccccc2N2CCN(C(=O)C(C)C)CC2)c1C | -9 | -8 | -6 | -5 | 7 | i | -19 | -224
COc1ccc(NC(=O)C2(c3ccc(NC(=O)c4ccc(OC)c(OC)c4)cc3)CCCC2)cc1 | 0 | 2 | 5 | 2 | 9 | i | -1 | 34
COC(=O)c1ccccc1NC(=O)CN1C(=O)C2CCCN2c2ncc(Cl)cc21 (stereo not given) | · | 2 | · | 2 | · | i | 6 | ·
Cc1ccc(NC(=O)c2cc3ccccc3o2)cc1S(=O)(=O)N(C)C | -6 | -6 | 10 | · | -18 | · | -3 | -98
O=C(Nc1ccccc1C(=O)N1CCOCC1)c1ccc(CSc2ccccc2)cc1 | 1 | -3 | 1 | -13 | · | i | -3 | 2
CCOc1cc(/C=N/N=C(\N)c2nonc2N)cc(Br)c1OCc1cccc2ccccc12 | -10 | -10 | -9 | 15 | -24 | i | 5 | -152
Cc1cc(C)c(S(=O)(=O)c2ccc(Cl)cc2)c(Cl)n1 | 2 | -1 | 3 | -12 | · | i | -4 | 4
CCC(CC)c1nnc(NC(=O)c2ccc(S(=O)(=O)N3CCc4ccccc4C3)cc2)s1 | -9 | 4 | 5 | -1 | -14 | i | 8 | -13
Cc1c2cccn2cc[n+]1C | -1 | -4 | 1 | -5 | -4 | i | 0 | -56
COc1ccc(C(=O)/C=C/c2ccccc2C(F)(F)F)cc1 | 0 | -6 | -3 | 11 | · | i | -6 | 33
CC(OC(=O)CC(C)c1ccccc1)C(=O)Nc1ccc(Cl)cn1 (stereo not given) | -1 | · | -3 | · | -2 | · | · | 5
O=C(NCCO)C(=O)NCC1OCCCN1S(=O)(=O)c1ccc2c(c1)OCCO2 (stereo not given) | 5 | 1 | 2 | -2 | -10 | i | 12 | -3
Cc1ccc(NC(=O)c2cc(NC(=O)/C=C\C(=O)O)ccc2N2CCCCC2)cc1 | 0 | 6 | 1 | 32 | -5 | i | 4 | -8
COc1ccc(N2C(=O)CC(NCC#N)C2=O)cc1 (stereo not given) | 0 | 0 | -1 | -2 | -16 | i | 2 | -11
CC(C)NC(=O)/C=C/C(=O)O | 2 | 1 | 1 | 7 | · | · | 1 | 14
CCOC(=O)c1c(NC2OC(=O)c3c2ccc(OC)c3OC)sc(C(=O)OC(C)(C)C)c1C (stereo not given) | -3 | -9 | -1 | 4 | · | i | -5 | -154
CCOc1ccc(/C=N/NC(=S)NC2CC3C=CC2C3)cc1 (stereo not given) | -6 | 2 | -5 | 59 | -23 | i | -8 | 1
